HPGD block – blocks human HPGD enzyme activity. 150,000 compounds, 4.3% hits. Potency, µM, for inactives: top-dose activity change, negative = inhibition, actives largely listed as inhibitors. AID 894. purified HPGD, NADH fluorescence kinetic, PGE2 substrate. P15428; active = well fitted inhibition curve with a large enough effect (not every such curve was filed as active); inconclusive = small, poorly fitted or top-dose-only effect, or another doubt; inactive = no such curve, though single readings can be large or run the other way;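 further: top concentration of the series not given in the record; plate controls included wells without enzyme; inactives centre near -10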
Target sequence (P15428 whole entry, looked up): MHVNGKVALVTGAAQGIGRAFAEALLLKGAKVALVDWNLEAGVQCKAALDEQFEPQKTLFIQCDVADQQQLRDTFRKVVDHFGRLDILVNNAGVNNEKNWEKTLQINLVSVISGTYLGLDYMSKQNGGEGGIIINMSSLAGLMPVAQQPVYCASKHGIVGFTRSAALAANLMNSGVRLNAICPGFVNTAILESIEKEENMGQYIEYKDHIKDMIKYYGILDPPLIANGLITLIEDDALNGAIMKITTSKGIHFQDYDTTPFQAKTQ
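NADH formation kinetics: reaction with 30 uM PGE2 and 1 mM NAD+ (final), 20 nM enzyme, Tris-HCl pH 8 with Tween 20, after 15 min compound preincubation at room temperature. Fluorescence change, last versus first of five reads.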
Starred values were filed as active, the others as inactive; u = inconclusive; & = joins results of further samples; ! = a repeat was not active. On the % scale 0 is the no-effect control and ±100 the full control effect; potency means the concentration at half of the fitted maximal effect. Some of the compounds tested; count on the stated rates, not on these rows.

SMILES	HPGD block
Cc1cc2ncn(/N=C/c3ccc([N+](=O)[O-])o3)c2cc1C	-3.2%
CC1=C(/C=C/C(C)=C/C=C/C(C)=C/C(=O)Nc2ccc(O)cc2)C(C)(C)CCC1	-9.2%&-9.2%&-12.1%
COc1ccccc1NCc1nnc(SCC(=O)N/N=C/c2ccco2)n1-c1ccc(Cl)cc1Cl	-16.1%
C=CCN1C(=O)C(CC(=O)Nc2ccc(C)cc2)SC1=Nc1c(C)n(C)n(-c2ccccc2)c1=O (stereo unspecified)	-5.2%
CC(=O)NCCc1c[nH]c2ccc(O)cc12	11.2µM*!
CCOCCCn1c(=NC(=O)c2cccnc2)c(C(=O)OCC)cc2c(=O)n3ccccc3nc21	u
CCOc1cccc(C=Nc2cc(C)cc(C)c2O)c1O	11.2µM*
Cc1onc(-c2ccccc2Cl)c1C(=O)Nc1nnc(-c2ccc(Br)cc2)s1	u
COc1c(O)cc(O)cc1O	-7.0%
CN(C)S(=O)(=O)c1ccc(C(=O)Nc2cccc(C(=O)O)c2)cc1	-6.2%
COc1cc(Br)cc(-c2nc3c(c(=O)[nH]c(=O)n3Cc3ccccc3)n2C)c1O	-27.1%
N#Cc1c(NC(=O)CSc2nc3ccccc3c(=O)n2Cc2ccco2)sc2c1CCCC2	-9.2%
Cc1cc(C)nc(SCc2csc(-c3ccccc3)n2)n1	u
Cc1ccc(C(=O)Nc2ccccc2OC(F)F)cc1	-3.3%
C=CCSc1nn2c(=O)c3ccccc3nc2s1	-6.7%

Brought forward from above: 5 entries; new compounds follow.
SMILES	HPGD block
COc1cc(Br)cc(-c2nc3c(c(=O)[nH]c(=O)n3Cc3ccccc3)n2C)c1O	-27.1%
N#Cc1c(NC(=O)CSc2nc3ccccc3c(=O)n2Cc2ccco2)sc2c1CCCC2	-9.2%
Cc1cc(C)nc(SCc2csc(-c3ccccc3)n2)n1	u
Cc1ccc(C(=O)Nc2ccccc2OC(F)F)cc1	-3.3%
C=CCSc1nn2c(=O)c3ccccc3nc2s1	-6.7%
Cc1nc2cnc(OCc3ccccc3)nc2n(Cc2ccc(F)cc2)c1=O	-25.6%
COc1ccc(Cn2c(CCC(=O)Nc3ccc(CC#N)cc3)nc3cccnc32)cc1	-7.1%
COc1ccc(-n2c(Cn3c(=O)sc4ccccc43)nnc2SCC(=O)N2CCCCC2)cc1	-5.8%
CCOC(=O)c1sc(NC(=O)c2cc3c(s2)CCC(C)C3)nc1C (stereo unspecified)	-17.8%
c1cn(-c2ncnc3sc4c(c23)CCCC4)cn1	-25.3%
O=C(O)c1ccc(-n2c(-c3ccc(Br)cc3)n[nH]c2=S)cc1	u
O=C1CC(NNc2nc3ccccc3s2)C(=O)N1c1ccccc1 (stereo unspecified)	-25.5%
NC(=O)CC[C@@H]1NC(=O)[C@H](CO)NC(=O)c2cc([N+](=O)[O-])cc(I)c2OCC[C@@H](C(N)=O)NC1=O	u
O=C(OCC(=O)N1N=C(c2ccc(Cl)cc2)CC1c1ccco1)c1ccccc1O (stereo unspecified)	u
CCNC(=O)NC(=O)C(C)OC(=O)c1oc2ccc(OC)cc2c1C (stereo unspecified)	u
CC(=O)N1[C@H](Cc2ccccc2)C=C[C@]1(C)C(=O)NCCc1c[nH]c2ccccc12	-6.4%
CCOCCCNC(=O)Cn1nc(-c2ccccc2)ccc1=O	-10.4%
CC1(C(=O)O)C=CCN1C(=O)c1ccccc1 (stereo unspecified)	-3.6%&-8.1%
O=C(NCc1ccco1)c1cc(-c2ccccc2)on1	-19.8%
CCOC(=O)C1CCCN(CC(=O)Nc2c(C(=O)OC)[nH]c3ccc(Cl)cc23)C1 (stereo unspecified)	-27.4%
Cc1ccc(C2C(=O)N(C3CCC(C)CC3)CC(=O)N2C2CCCC2)cc1 (stereo unspecified)	-1.0%
COc1ccc(C(=O)CSc2nnc(C3CC3)n2N)cc1	-12.7%
O=C(Nc1ccc(Br)cc1Cl)Nn1cnnc1	-2.3%
Cc1ccc(-c2nnn(CC(=O)N(c3ccccc3F)C(C(=O)NCC3CCCO3)c3c[nH]c4ccccc34)n2)cc1 (stereo unspecified)	-6.9%
Cc1ccc(-c2ccc(/C=N\NC(=O)C3C(=O)NCC3c3ccccc3)o2)cc1Cl (stereo unspecified)	u
Cc1cc(C(=O)OCn2nnc3ccccc3c2=O)c(C)n1-c1ccccc1	-14.9%
O=C(CC(NC(=O)c1ccccc1Cl)c1ccccc1)Nc1ccc2c(c1)OCO2 (stereo unspecified)	-8.8%
Cc1ccc(-c2n[nH]c(=S)n2C)cc1	-16.5%
O=C(CNC(=O)c1ccc(-c2ccccc2)cc1)OCc1c(F)cccc1Cl	-23.7%
CCCOc1ccc(NC(=O)C(=O)NCCCn2ccnc2)cc1	-10.0%
C/C(=N\NC(=O)c1ccc(Cl)c(Cl)c1)c1cccc(NC(=O)C(C)C)c1	-8.1%
O=C(O)c1cc(Cl)c(Cl)cc1C(=O)Nc1cccc2ncccc12	-16.7%
CCc1ccc(/C(C)=N\Nc2ccc([N+](=O)[O-])cc2)cc1	-4.5%
Cc1nn(CC(=O)O)c(=O)c2ccccc12	-10.4%
CCCN(CCC)S(=O)(=O)c1ccc(C(=O)N2CCOCC2)cc1	-0.8%
Cc1cc(NC(=O)c2cc(-c3ccc4c(c3)OCO4)on2)n(-c2ccccc2)n1	u
Nc1nc(C2CCCN2S(=O)(=O)c2ccc(Cl)cc2)cs1 (stereo unspecified)	-9.5%
CC(C)c1ccc(C(CC(=O)c2ccc(Cl)cc2)C(=O)O)cc1 (stereo unspecified)	3.4%
CC(=O)N1CCc2cc(C(=O)CN3CCCN(Cc4ccc(F)cc4)C3)ccc21	-12.7%
Cn1cnnc1SCC(=O)Nc1ccccc1Sc1ccccc1	-5.7%
Cc1[nH]n(-c2ccccc2)c(=O)c1/C=N/N1C(=O)c2ccc3c4c(ccc(c24)C1=O)CC3	-17.0%
COc1ccc(C2SCC(C(=O)O)N2C(C)=O)cc1OC (stereo unspecified)	-9.7%
CC(=O)Oc1ccc(C(=O)Nc2ccc3c(c2)C(=O)N(CCC(=O)O)C3=O)cc1	u
Cc1cccn2c(=O)c3cc(C#N)c(=N)n(Cc4ccncc4)c3nc12	-16.1%
Cc1cc(OC(=O)CNC(=O)OC(C)(C)C)c2c(C)cc(=O)oc2c1	17.8µM*
CC(C)=CCC/C(C)=C/CC/C(C)=C/CO	-7.4%&-15.5%
Cc1ccc2[nH]c(=O)c(C(c3nnnn3CC3CCCO3)N3CCc4ccccc4C3)cc2c1 (stereo unspecified)	u
Cc1c(Cl)c([N+](=O)[O-])nn1CC(=O)Nc1c(C)n(C)n(-c2ccccc2)c1=O	-2.9%
Cc1ccc(C(c2sc3nc(C)nn3c2O)N2CCOCC2)cc1 (stereo unspecified)	-9.0%
COc1ccc(Nc2nc(N)nc(CSCCO)n2)cc1	-3.3%
CCC(=O)NC(=S)Nc1ccc(S(=O)(=O)N2CCN(C)CC2)cc1	-3.7%
COc1ccccc1N1CCN(C(=O)CSc2nnc(NC(=O)C3CCC3)s2)CC1	-4.3%
CC(C)CCNC(=O)CN(CCN1CCOCC1)C(=O)Cn1nnc(-c2ccc(F)cc2)n1	-1.6%
CCOC(=O)c1ccc(NC(=O)C2CCN(C(=O)c3ccc(OC)c(OC)c3)CC2)cc1	-2.5%
NC(=O)CSc1nnc(Cn2c(=O)sc3ccccc32)n1-c1ccccc1	-2.6%
COc1ccc(-c2cc(C#N)nc(N3CCN(C)CC3)n2)cc1	u
Cc1ccc(C2CC(=O)NC(SCC(=O)Nc3nccs3)=C2C#N)cc1 (stereo unspecified)	-11.2%
Cc1ccsc1-c1nc(C(N)=O)c2[nH]c(=O)n(-c3ccc(Cl)cc3)c2n1	-25.9%
CN1CCN(c2nc3c(c(=O)n(C)c(=O)n3C)n2C)CC1	-7.2%
COc1cc(C2N(c3ccc(Cl)cc3)C(=O)C3CCCN32)cc(OC)c1OC (stereo unspecified)	3.6%
O=C(C1CCCO1)N1CCN(c2c3c(nc4cc(-c5ccc(F)cc5)nn24)CCC3)CC1 (stereo unspecified)	u
COc1ccccc1N1CCN(C(=O)c2cc(C3CC3)on2)CC1	-21.1%
Cc1ccccc1-c1nc(CN2CCC(C(=O)NCCCN3CCOCC3)CC2)c(C)o1	-7.3%
CC(=O)c1ccc(N2CCN(C(=S)Nc3ccccc3)CC2)cc1	-6.8%
O=C(Cc1ccc(Cl)cc1)Nc1ccc(SC(F)F)cc1	-6.3%
More records follow:
SMILES	HPGD block
CCC12CN3CC(CC)(CN(C1)C3c1ccc(OC(C)C)cc1)C2=O (stereo unspecified)	-6.7%
CC(=O)CCc1c(C)nc2ccc(C(=O)O)cc2c1Cl	u
Cc1ccc(C2CC(c3ccc(C)cc3)n3nc(N)nc3N2)cc1 (stereo unspecified)	-9.4%
COc1ccc(S(=O)(=O)NCc2ccccc2)cc1	-15.4%
Cc1ccc(C(=O)NNC(=O)C2CCN(c3nccc(C)n3)CC2)cc1	-17.4%
CCOC(=O)c1ccc(N2C(=O)c3n[nH]c(C)c3C2c2ccc(OC)c(OC)c2)cc1 (stereo unspecified)	u
COc1ccc(/C(C)=N/NC(=S)NCc2ccco2)cc1	-24.1%
CC(C)COc1ccc2[nH]c3c(c2c1)CCCC3=O	-16.3%
Cc1ccc(CN2C(=O)CCSc3ccc(Cl)cc32)cc1	-7.1%
O=C(COC(=O)C12CC3CC(CC(C3)C1)C2)Nc1nc2c(F)c(F)c(F)cc2s1	-7.3%
COc1cccc(C2=NC(C)(C)NC(c3ccccc3O)C2)c1 (stereo unspecified)	u
Cc1cc(=O)oc2cc(OCC(=O)N3c4ccccc4CC3C)ccc12 (stereo unspecified)	u
CC1(C)CC(=O)C2=C(C1)N(c1ccc(F)cc1)C(=O)C2(NC(=O)c1ccccc1F)C(F)(F)F (stereo unspecified)	-7.5%
C/C(CC(=O)NCCCN1CCOCC1)=N\NC(=O)COc1cccc2ccccc12	-1.4%
CCOc1ccc(NC(=O)c2cn(-c3ccc(OCC)cc3)c(=O)c3cc(OC)c(OC)cc23)cc1	u
O=C(CSc1nnc(Nc2ccccc2)s1)Nc1ccc(S(=O)(=O)N2CCOCC2)cc1	-4.2%
NC(=O)C1CC(=O)N(c2ccc(OCC(=O)Nc3cccc(C(F)(F)F)c3)cc2)C1 (stereo unspecified)	-21.3%
COc1ccc(NC(=O)CCc2nc(-c3ccc(C)cc3)no2)c(OC)c1	-8.4%
CCOC(=O)/C(=N\Nc1ccccc1Cl)N1CCN(C)CC1	-0.6%
Cc1cc(C(=O)OCC(=O)N2CC(=O)Nc3ccccc32)no1	-17.4%
CN(C)c1ccc(NC(=O)CSCc2nc3c(nnn3Cc3ccc(F)cc3)c(=O)[nH]2)cc1	22.4µM*
Cc1cc(C)c(C(=O)OCCNC(=O)c2cccnc2)cc1C	-3.7%
Oc1ccc2c(c1)oc1cc(O)ccc12	-24.8%
O=C(CSc1ncnc2nc[nH]c12)N1CCOCC1	-1.0%
FC(F)(F)c1cccc(N2CCN(CC3CC4C=CC3C4)CC2)c1 (stereo unspecified)	-25.0%
CC(=O)N(Cc1cc2cc(C)c(C)cc2n2nnnc12)CC1COCCO1 (stereo unspecified)	-22.4%
COc1ccccc1NC(=O)CSc1nnc(C)o1	-8.2%
Clc1ccc(SCCCCn2cncn2)cc1	-13.7%
COc1cc(-c2cc(C(=O)O)c3cc4c(cc3n2)OCCO4)cc(OC)c1OC	-8.7%
Clc1ccc2c(c1)[C@H]1OCC[C@H]1[C@@H](c1ccco1)N2	u
Cc1cc(NC(=O)C2CCCN(S(=O)(=O)c3c(C)noc3C)C2)n[nH]1 (stereo unspecified)	-1.0%
CCn1cc(SCC(=O)N2CCOCC2)c2ccccc21	-3.8%
O=C(Nc1cccc(C(F)(F)F)c1)C1C2CC3OC(=O)C1C3C2 (stereo unspecified)	-9.5%
Cc1ccc(NC(=O)c2cccc(S(=O)(=O)N(C)c3ccccc3)c2)cc1S(=O)(=O)N1CCOCC1	-18.7%
Cc1ccc(Nc2nc(N)nc(CN3CCN(C)CC3)n2)cc1C	-4.6%
CC(=O)c1cc(C#N)c(SCc2ccccc2)nc1C	-20.2%
CCN1CCN(CC(=O)NC2CCCCC2)C(=O)C1=O	-5.9%
CCOC(=O)C1=C(N)n2c(s/c(=C\c3ccco3)c2=O)=C(C(=O)OC(C)C)C1c1ccco1 (stereo unspecified)	-11.7%
CCC=O	-5.0%
CCOc1ccc(C(=O)NCc2ccco2)cc1	28.2µM*
COc1cccc(CN2CCN(C(=O)c3cccc4ccccc34)CC2)c1OC	0.6%
COc1cc2nc(/C=C/c3cc(OC)c(OC)c(OC)c3)sc2cc1SC	u
COC(=O)CCCC1=CC2=CC(=O)C(C)(OC(=O)c3cccs3)C(=O)C2=CO1 (stereo unspecified)	-8.6%
Cc1cccc(C)c1NC(=O)C1(N2C(=O)CC2c2ccccc2)CCCCC1 (stereo unspecified)	-6.2%
Oc1ccccc1CNn1cnnc1	3.3%

3 successive compounds from above:
SMILES	HPGD block
COC(=O)CCCC1=CC2=CC(=O)C(C)(OC(=O)c3cccs3)C(=O)C2=CO1 (stereo unspecified)	-8.6%
Cc1cccc(C)c1NC(=O)C1(N2C(=O)CC2c2ccccc2)CCCCC1 (stereo unspecified)	-6.2%
Oc1ccccc1CNn1cnnc1	3.3%

Rewritten with values ahead of the structure: 2 of the compounds above
HPGD block | Structure
-24.1% | COc1ccc(/C(C)=N/NC(=S)NCc2ccco2)cc1
-16.3% | CC(C)COc1ccc2[nH]c3c(c2c1)CCCC3=O

Next section:
SMILES	HPGD block
COc1cccc(OCC(=O)NNC(=O)c2cnccn2)c1	-13.4%
CC(=O)C1=C(O)C(=O)N(c2ccc(Br)cn2)C1c1ccccc1F (stereo unspecified)	-29.1%
O=C1C=C(NCc2ccc(Cl)c(Cl)c2)CC1	-11.3%
COc1cccc2c(=O)n(CC(=O)Nc3ccc(F)cc3)ccc12	-22.7%
